Compound activity as filed in PubChem BioAssay.
Rce1 inhib = blocks yeast Ras-converting enzyme. calls only. 290,000 compounds, 0.27% hits. yeast membranes, quenched prenylated peptide cleavage fluorescence. Q03530;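 active = fall in fluorescence gain of 50% or more versus controls, with final raw signal at or below 3038400; inconclusive = same 50% fall but final raw signal above 3038400; inactive = fall in fluorescence gain under 50%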;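 also: plate controls were neutral control wells for no effect and wells lacking membranes for full effect; tested at 10 µM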
Target sequence (Q03530 whole entry, looked up): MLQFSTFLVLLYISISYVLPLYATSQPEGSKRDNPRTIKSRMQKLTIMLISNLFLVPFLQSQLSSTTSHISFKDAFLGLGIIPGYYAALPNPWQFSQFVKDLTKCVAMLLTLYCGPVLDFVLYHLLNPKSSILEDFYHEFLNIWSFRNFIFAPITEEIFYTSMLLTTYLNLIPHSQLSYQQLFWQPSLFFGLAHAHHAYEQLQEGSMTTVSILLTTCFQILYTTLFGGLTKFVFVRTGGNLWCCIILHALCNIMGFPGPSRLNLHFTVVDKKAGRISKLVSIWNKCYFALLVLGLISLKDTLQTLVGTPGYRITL
CSC inhib = blocks cancer stem cells; 300,000 compounds, 1.1% hits; inhibition, % at 7.5 µM; cancer stem cell-like cells viability, luminescence;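 active = mean at 75% or more and at least half the replicates too; inconclusive = mean and replicates disagree; tested in HMLE shEcad cells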;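 also: 0% = median of negative and 100% = median of positive control wells; the first replicate is given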
MT1-MMP act inh = MT1-MMP (human) activation inhibition; P50281; HT1080 RFP-PRO-GFP cells, GFP/RFP ratio fluorescence, overnight; percent of plate control window, DMSO zero; GFP/RFP ratio change, % at 20 µM; 360,000 compounds, 0.061% hits;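 active = GFP/RFP ratio change of at least 30% with cell ATP level not reduced by more than half and red fluorescence within 50% of control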; also: strong numbers were not always called active
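Assay system: HT1080 cells carrying an RFP-PRO-GFP reporter | Dosing: Single dose of 20 µM compound, 1% DMSO final | Incubation: Cells overnight before dosing, compound overnight, 37 °C, 5% CO2 | Evaluation: GFP/RFP fluorescence ratio | Control set: DMSO and RFP-L50D-GFP cell wells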
UUG fidelity = yeast start codon fidelity modulation; S. cerevisiae UUG-firefly luciferase reporter, luminescence/redox ratio; activity score, % at 18.7 µM; 350,000 compounds, 0.13% hits; AID 602363;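 active = replicate mean at a twofold rise or more, about +100% in these data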;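 also: firefly luciferase made from a UUG start codon reports start codon fidelity; reporter light over untreated wells divided by growth signal over untreated wells; some hits fall short of that in this replicate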
HIV Env fusion = HIV envelope-mediated fusion inhibition | 360,000 compounds, 1.1% hits | HeLa-JRFL Env/CEM21 cell fusion, luciferase | inhibition, % at 12.3 µM | AID 651610;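 active = mean replicate inhibition score of at least 50 and every replicate individually at or above 50; inconclusive = only one of the two criteria met; inactive = mean below 50 and not all replicates reaching 50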;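 also: 0% = plate neutral controls and 100% = maraviroc near 300 nM; one replicate is shown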
PABP polyA inh = PABP-poly(A) binding inhibition. P11940. PABP-poly(A) RNA binding, fluorescence polarization. inhibition, % at 35 µM. 290,000 compounds, 1% hits. AID 2014;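 active = 50% or more with normal probe brightness, or confirmed in later tests; inconclusive = above 50% with abnormal brightness, or retests that disagree; inactive = below 50% or failed in later tests; about a fifth of its hits are not listed in these tables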;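 also: calls also rest on retests at 20 µM and on dose response follow-up; controls were probe without protein and protein plus probe with vehicle; some compounds called inactive have numbers as strong as hits; many hits fall short of the cut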
Target sequence (P11940 whole entry, looked up): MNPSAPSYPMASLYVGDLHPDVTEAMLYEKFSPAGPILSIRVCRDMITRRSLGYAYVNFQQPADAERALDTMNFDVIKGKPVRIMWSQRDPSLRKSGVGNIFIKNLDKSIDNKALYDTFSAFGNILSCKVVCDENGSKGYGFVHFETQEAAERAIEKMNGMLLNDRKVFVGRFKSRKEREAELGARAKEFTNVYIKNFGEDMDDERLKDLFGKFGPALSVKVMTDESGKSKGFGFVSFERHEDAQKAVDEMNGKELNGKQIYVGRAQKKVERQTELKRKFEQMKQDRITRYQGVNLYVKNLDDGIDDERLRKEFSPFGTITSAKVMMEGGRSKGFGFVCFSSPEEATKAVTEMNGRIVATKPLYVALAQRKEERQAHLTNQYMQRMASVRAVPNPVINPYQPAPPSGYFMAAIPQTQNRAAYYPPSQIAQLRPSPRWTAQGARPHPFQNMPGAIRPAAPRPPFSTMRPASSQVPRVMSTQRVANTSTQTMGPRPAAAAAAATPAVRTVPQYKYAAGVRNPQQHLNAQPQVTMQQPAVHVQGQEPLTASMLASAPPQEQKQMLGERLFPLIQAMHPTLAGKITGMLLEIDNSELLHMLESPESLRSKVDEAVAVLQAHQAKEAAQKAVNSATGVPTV
eIF4H FP inh = inhibitors of RNA binding by human eIF4H; 290,000 compounds, 0.94% hits; AID 2012; eIF4H fluorescence polarization binding assay; inhibition, % at 35 µM;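 active = 50% or more with normal probe brightness, or confirmed in later tests; inconclusive = above 50% with abnormal brightness, or retests that disagree; inactive = below 50% or failed in later tests; about a fifth of its hits are not listed in these tables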;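 also: calls also rest on retests at 20 µM and on dose response follow-up; 0% = protein and probe with vehicle and 100% = probe without protein; strong numbers were not always called active; many hits fall short of the cut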
eIF4H FP inh retest = also measured in eIF4H FP inh; calls as there; inhibition, %; compound at 20 µM; confirmation average;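 mean of two retest wells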
PABP polyA inh retest = recorded beside PABP polyA inh, whose call it bears; inhibition, %; compound at 20 µM; confirmation repeats;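 mean of two retest wells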
MT1-MMP act inh RFP = recorded beside MT1-MMP act inh, whose call it bears; RFP signal change, %; measured here: RFP expression control read;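 0 = vehicle wells; hits needed this value within 50% of zero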
Numbers without * were called inactive; i = inactive; ? = inconclusive; · = not tested or not shown; & = joins results of further samples; [ ] = dose if it differs, or a comment.

SMILES | Rce1 inhib | CSC inhib | MT1-MMP act inh | MT1-MMP act inh RFP | UUG fidelity | HIV Env fusion | PABP polyA inh | eIF4H FP inh | others
Cc1ccc(Nc2nc(N)c([N+](=O)[O-])c(NCCO)n2)cc1 | i | -10.5 | -1.8 | 1.8 | 5.3 | -4.5 | 10.1 | 5.0
C=CCn1c(CSc2nc3ccccc3s2)nnc1SCC(=O)OCC | i | -18.2 | -2.8 | -4.8 | · | -21.0 | -2.6 | -0.9
CSc1cccc(CN(C)C(=O)C2CCC(=O)N(CCCN3CCCC3=O)C2)c1 (centres undefined) | i | 1.1 | -1.1 | 0.9 | -6.6 | 3.0 | -5.4 | -1.9
O=C(COc1ccc(Br)cc1)Nc1nnc(-c2cccnc2)s1 | i | -33.9 | · | · | · | 0.0 | -12.2 | -10.2
CCOC(=O)CNC(=O)CSc1nnc(C)c(=O)[nH]1 | i | -7.7 | -2.2 | 3.0 | · | 11.0 | -10.8 | 3.3
NNC(=O)c1cc2cc(OC(F)(F)F)ccc2[nH]1 | i | 6.2 | 2.2 | 8.2 | · | 1.6 | -2.9 | -3.5
COc1ccc(/C=C(/NC(=O)c2ccc(Br)cc2)C(=O)N2CCOCC2)cc1 | · | 6.9 | -0.7 | -2.1 | 3.5 | -32.7 | 0.0 | -5.9
Cc1ccc(CC(=O)Nc2ccc(F)c([N+](=O)[O-])c2)cc1 | i | 4.6 | 3.5 | 8.2 | · | 4.1 | 55.8 | -18.0 | eIF4H FP inh retest=1.1;PABP polyA inh retest=4.9
CCC(C)(C)n1nnnc1C(c1ccccc1)N1CCc2ccccc2C1 (centres undefined) | i | 11.2 | -8.2 | -8.5 | 5.8 | · | -8.1 | -3.4
COc1ccc(/C(C)=N/NC(=O)Cc2ccc(Cl)cc2)cc1 | i | -2.7 | 7.1 | -3.1 | -10.6 | -0.7 | -16.5 | -9.5
Cc1cc(C)n2nc(CC(=O)NNC(=O)c3ccccc3Cl)nc2n1 | i | -3.2 | 2.5 | 4.5 | -15.2 | -5.2 | 0.4 | -1.8
CCCOc1ccc(CSc2nnc(CCC)n2N)cc1 | i | 0.3 | 5.4 | 11.5 | -21.3 | · | -8.5 | -7.1
CC(C)COC(=O)N(C)C[C@@H]1OCc2cnnn2CCCC(=O)N([C@H](C)CO)C[C@@H]1C | · | · | -0.6 | 4.9 | -2.9&7.8&2.0 | -0.4[16.7 µM] | · | ·
C=C1CCN([C@@H](CC(C)C)C(=O)NCCC(C)C)S(=O)(=O)c2ccccc21 | i | -12.3 | -4.3 | -9.0 | -13.8 | ? | · | ·
CCOC(=O)C(=N/O)/C(C)=N/NC(=O)C(=O)Nc1cc(Cl)ccc1Cl | i | 1.6 | -0.4 | 0.5 | · | 10.1 | 10.6 | -1.9
COC(=O)c1ccc(-c2noc(CN(Cc3nccn3C)C(C)C)n2)cc1 | i | -7.6 | -5.9 | -2.7 | -9.5 | 9.9 | -4.3 | -5.6
Cc1ccc(Nc2nc(Oc3ccc(OCc4ccccc4)nn3)nc(N3CCOCC3)n2)cc1 | i | 4.7 | -6.1 | -10.0 | -10.0 | · | -0.6 | -3.5
CC1=[N+](C)c2c(ccc3cccnc23)C1(C)C | · | · | 6.6 | 64.4 | · | 34.1 | ? | ?
CCOC(=O)c1c(C)[nH]c(C(=O)COC(=O)c2oc3ccc(OC)cc3c2C)c1C | i | -4.1 | 4.0 | -1.6 | -24.2 | -51.3 | 10.2 | -1.1
N#Cc1cccc(C(=O)OCC(=O)N2CCCc3ccccc32)c1 | i | -6.4 | -2.2 | -0.9 | -3.9 | -6.7 | · | ·
CC(=O)NCC(=O)N1CCC(n2nccc2NC(=O)CCCc2ccccc2)CC1 | i | -9.3 | 2.3 | 7.9 | -20.8 | 2.2 | -4.4 | -15.1
Cc1nnc2n(c1=O)C(CS(=O)(=O)c1ccccc1)CS2 (centres undefined) | i | 0.3 | -3.7 | 5.6 | -13.3 | 19.8 | -1.1 | -1.2
Fc1ccc(OCc2nc3ccccc3s2)cc1 | i | -3.7 | -4.3 | 3.4 | · | -96.5 | -6.4 | 3.0
COC(=O)c1ccc(Oc2nc(Nc3ccccc3)nc(N(C)C)n2)cc1 | i | 7.1 | -48.8 | -41.1 | 3.8 | 23.6 | -1.0 | 4.4
O=C1CC(NNc2nc3ccccc3s2)C(=O)N1c1ccc(F)cc1 (centres undefined) | i | -8.4 | 0.7 | 4.4 | · | 14.9 | 0.1 | -1.4
CCN(CC)S(=O)(=O)c1ccc(C(=O)Nc2c3c(nn2C(C)(C)C)CS(=O)(=O)C3)cc1 | i | · | 0.4 | 2.2 | · | -61.5 | 33.6 | 0.5
COc1cc(OC)nc(Nc2nc(CN)cs2)n1 | · | · | 4.1 | 0.3 | -4.9 | -12.7 | · | ·
Cc1ccc(S(=O)(=O)NCCNC(=O)c2nonc2N)cc1 | i | · | 4.4 | 8.2 | · | -18.6 | -10.0 | 7.9
CC(=O)Oc1ccc(-c2cccc(C(=O)Oc3ccccc3)c2)cc1 | i | -2.0 | · | · | 2.2 | · | 3.9 | -10.1
COC(=O)/C(=N/Nc1ccc(C)cc1)N1CCCc2ccccc21 | i | 14.7 | -56.7 | -39.7 | · | -17.7 | -1.0 | -9.1
COc1cccc(CNS(=O)(=O)c2cc3c4c(c2)CCC(=O)N4CCC3)c1 | i | 3.4 | 5.9 | -3.0 | · | 3.0 | · | ·
O=C1N=C(N2CCOCC2)S/C1=C\c1ccc(OS(=O)(=O)c2ccccc2)cc1 | i | -5.3 | -6.6 | -9.5 | · | -54.8 | -2.1 | -2.8
O=S(=O)(c1ccccc1)c1nc(-c2ccc(Cl)cc2)oc1NCCCN1CCOCC1 | · | · | 0.5 | -1.1 | -0.8 | -1.9 | · | ·
O=C(COC(=O)C1CC2C=CC1C2)Nc1ccc([N+](=O)[O-])cc1 (centres undefined) | · | -9.7 | 1.9 | 1.4 | -14.9 | 31.0 | · | ·
O=C(O)c1ccc(CN2C(=O)c3cccc4c([N+](=O)[O-])ccc(c34)C2=O)cc1 | i | · | -181.2 | -2.1 | -0.5 | · | 62.9* | 80.6*
C[C@@H]1CN([C@@H](C)CO)S(=O)(=O)c2ccc(Br)cc2O[C@H]1CN(C)C(=O)C1CCC1 | · | · | 1.1 | -1.4 | 4.2&7.2 | -22.6 | · | ·
O=C(CNS(=O)(=O)c1ccc(Cl)cc1)NC1CCCCC1 | · | · | -2.8 | -1.2 | -12.8 | -61.7 | · | ·
O=C(CN1CCCCCC1=O)OCc1ncc(-c2ccccc2)o1 | i | -24.0 | 0.3 | -0.6 | -14.0 | -32.2 | 6.9 | 3.4
Cc1ccc(C)c(OCC(=O)NNC(=O)c2ccc(=O)[nH]c2)c1 | · | -19.1 | 1.4 | 0.8 | -10.0 | 12.0 | · | ·
CC(C)(C)c1ccc(C(=O)N2CCC(C(=O)NCc3ccco3)CC2)cc1 | i | 2.8 | 6.0 | 1.2 | 1.9 | · | -1.9 | -5.9
Cc1ccc(-n2nc3c(=O)n(CCCC(=O)NCCN4CCN(C)CC4)nc(C)c3c2C)cc1 | i | -0.6 | 1.2 | 2.3 | 0.2 | 2.7 | 8.5 | 18.6
CN(C)S(=O)(=O)c1ccc(C(=O)Nc2ccn(C)n2)cc1 | i | -0.6 | -0.4 | -0.4 | -17.4 | -5.2 | 1.0 | -6.4
N#C/C(=C(/O)COC(=O)c1ccc(O)cc1)c1nc2ccccc2[nH]1 | i | -1.5 | -5.0 | 2.6 | -15.5 | 11.8 | 30.2 | 26.3
CN(CC1CCCO1)S(=O)(=O)c1ccc(C(=O)Nc2nnc(-c3ccccc3)o2)cc1 (centres undefined) | i | 21.4 | -2.5 | -0.7 | -21.3 | 13.1 | -4.4 | 2.9
CCc1nc2ccc(C(=O)Nc3ccc(OC)c(OC)c3)cn2c1N(C)Cc1nccs1 | · | · | 0.6 | 0.3 | -17.2 | -16.5 | · | ·
Nc1nc(Nc2ccccc2)nc(NC2CCCCC2)c1[N+](=O)[O-] | i | 103.7* | -0.3 | -12.6 | -9.1 | 11.6 | 10.6 | -3.4
c1ccc2[nH]c(CCCc3nc4ccccc4[nH]3)nc2c1 | i | -4.1 | 2.1 | 4.3 | -33.1 | -15.9 | -3.6 | -7.9
CCOc1ncccc1C(=O)Nc1ccc2c(c1)OCCCO2 | · | · | -7.0 | -0.9 | 14.3 | 5.6 | · | ·
CC(Cl)c1cc(-c2ncc(C(F)(F)F)cc2Cl)no1 (centres undefined) | i | -5.3 | -0.9 | 1.2 | · | -8.3 | -9.7 | -4.4
CCOc1ccccc1NC(=O)CCNC(=O)c1ccco1 | · | -3.2 | 0.7 | 2.4 | 6.1 | 0.5 | 1.5 | 4.2

(further entries)
SMILES | Rce1 inhib | CSC inhib | MT1-MMP act inh | MT1-MMP act inh RFP | UUG fidelity | HIV Env fusion | PABP polyA inh | eIF4H FP inh | others
Cn1cc(Br)c(C(=O)NC(=S)N2CCN(c3ccccn3)CC2)n1 | i | 17.4 | 8.2 | 6.1 | · | 0.1 | 0.9 | -4.3
COc1cccc2c1C(CCCC(=O)O)CCC2 (centres undefined) | · | · | -1.8 | 1.6 | -3.7 | -5.6 | · | ·
NC(=O)c1ccc(NC(=O)CN2CCN(c3ccc(Cl)cc3)CC2)cc1 | i | -10.9 | 6.3 | -1.6 | · | 6.4 | -9.8 | -4.4
COc1ccc(OC)c(C2C(C(C)=O)=C(O)C(=O)N2CCc2ccc(OC)c(OC)c2)c1 (centres undefined) | i | -13.0 | 0.1 | -1.5 | -17.7 | -23.2 | -4.4 | 3.2
CC(OC(=O)c1cccnc1Cl)C(=O)NC1CCCCC1 (centres undefined) | · | · | -2.9 | 2.6 | -25.2 | 0.7 | · | ·
COc1cccc(CN(C)C(=O)c2cc(COc3ccc4ncccc4c3)on2)c1 | i | 8.1 | -1.5 | -28.9 | · | 15.2 | 6.7 | 5.4
CCOc1cc(/C=C2\N=C3CCCCCN3C2=O)ccc1O | i | 15.9 | -6.5 | 5.1 | · | -10.5 | ? | ?
COC(=O)CSc1nnc2n(-c3ccc(OC)cc3)c(=O)c3c4c(sc3n12)CCCCC4 | i | 4.3 | -5.3 | -0.6 | -13.8 | 2.0 | 0.7 | 0.9
CCOCCc1nnc(NC(=O)CCS(=O)(=O)c2ccccc2)s1 | · | 0.1 | 4.1 | 7.8 | -19.5 | 8.8 | 3.0 | 0.7
COc1ccc(N2CCN(C(=O)CN3C(=O)NC4(CCCc5ccccc54)C3=O)CC2)cc1 (centres undefined) | i | · | 8.0 | -1.0 | · | 2.6 | · | ·
O=C(O)C1CC=CCC1C(=O)NCCCN1CCCC1=O (centres undefined) | i | 4.4 | -1.2 | -0.6 | -16.3 | 7.0 | -1.0 | -15.4
C=CCn1c(N)cc(=O)nc1SCC(=O)NC(C)c1ccccc1 (centres undefined) | i | -13.0 | -0.2 | 3.8 | -5.9 | · | -2.9 | -3.9
COc1ccc(N=C2C(=Nc3ccc(OC)cc3)N(c3ccc(OC)cc3)C(=S)N2C)cc1 | i | 12.9 | -7.4 | 5.4 | -17.1 | · | -9.8 | -9.7
CCN(CC)CCNc1nc2nonc2nc1NCCN(CC)CC | i | -4.9 | -1.1 | 3.7 | -5.0 | -5.4 | 22.3 | 13.1
COc1ccc(NC(=O)c2ccc(S(=O)(=O)N3CC(C)CC(C)C3)cc2)cc1S(N)(=O)=O (centres undefined) | · | -10.8 | 0.1 | 1.4 | -6.4 | -5.1 | · | ·
